MgrA DNA FP: modulators of Staphylococcus aureus MgrA DNA binding | fluorescence polarization | inhibition, %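 (about 10 µg/mL by stock and volumes)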 | actives 0.13% (n = 84,000) | AID 602314;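 active = above 50% in either of two replicates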;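 note: 0% = protein plus DNA without compound and 100% = DNA alone without protein; higher means less MgrA bound to DNA so lower polarization; one replicate is shown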
Sa helicase inh: S. aureus DNA helicase inhibition; purified S. aureus helicase, fluorescence unwinding assay; about half of the hits fall short of the stated cut; inhibition, %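 (tested at about 80 µM)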; actives 0.05% (n = 120,000); AID 485395;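 active = both duplicates at 50% or more, or one of them with a favoured structure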;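 note: 0% = mean of negative control wells and 100% = mean of positive control wells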
* marks the source's active call; other numbers are inactive results; x = not tested or not shown; & = joins results of further samples. A portion of the library (hit frequency here may not be typical).

SMILES | MgrA DNA FP | Sa helicase inh
CCCCN(CC)C(=O)c1cc2c(=O)n3ccccc3nc2n1C | -0.1 | 11
O=C(NC(=S)NCc1ccccc1)C1CCCC1 | 18 | 13
CN1C/C(=C/c2ccc(O)cc2)C(=O)/C(=C/c2ccc(O)cc2)C1 | x | 6
CN(C)S(=O)(=O)c1ccc2c3c(cccc13)C(=O)N2 | x | 17
Cc1cc(C)cc(N2C(=O)c3ccccc3NC2c2ccc(Cl)cc2)c1 (stereo unspecified) | -0.7 | -1
O=C(O)Cc1ccc2sc(-c3ccccc3)nc2c1 | -6.7 | 12
CN(Cc1ccccc1)c1nc(-c2ccccc2)cc(C(F)(F)F)n1 | 0.8 | 7
Cc1ccc(C(C)(C)CC(=O)O)cc1 | x | 0
Cc1c(C(=O)O/N=C/c2ccc(Cl)cc2Cl)sc2cc(C(C)(C)C)sc12 | 0.8 | x
CC(CNC(=O)c1cc2oc3ccccc3c2n1C)c1ccccc1 (stereo unspecified) | -1.9 | 13
O=C(NCCOC12CC3CC(CC(C3)C1)C2)c1nc(-c2cccnc2)no1 | 0.2 | 3
O=C(NCCn1ccc2ccccc21)c1ccc(Cl)cc1Cl | x | -14
CCn1c(=O)n(CC)c2cc(NC=O)c(Br)cc21 | -0.6 | -4
COc1ccc(N/C(N)=N/c2nc(CSc3nc4ccccc4s3)cc(=O)[nH]2)cc1 | 2.3 | 8
Cc1nc2sc(C)c(C)c2c(=O)o1 | 0.0 | x
Cc1ccc(N2C(=O)/C(=C3/C(=O)N(C)c4ccccc43)SC2=S)cc1 | x | 2
COC(=O)c1ccc2c(c1)N(C)C(=O)/C(=C/c1ccccc1OC)S2 | -0.9 | 2
CCc1ccc(CN(C)C(C)C(=O)Nc2ccc(NC(C)=O)cc2)cc1 (stereo unspecified) | x | -4
CCCNC(=O)NCc1cc(C)n(-c2ccc(Cl)cc2)c1C | x | 8
C=CC[n+]1c(C)csc1Nc1ccc(C)cc1 | -0.3 | 11
CCc1c(-c2ccccc2)nc2nc(C)c(C)nn12 | x | -30
NC(=O)c1ccc(NC(=O)CN2CC(=O)Nc3ccccc32)cc1 | x | 14
CCOC(=O)c1c(Nc2ccc(C)cc2)n[nH]c1N | x | -15
CC(NC(=O)C(c1ccccc1)N1Cc2ccccc2C1=O)c1ccc2c(c1)OCCO2 (stereo unspecified) | x | 4
Cc1oc2ccc(O)c(CN3CCN(C)CC3)c2c1C(=O)OCC(C)C | x | 5

A portion of the results above:
SMILES | MgrA DNA FP | Sa helicase inh
CCCCN(CC)C(=O)c1cc2c(=O)n3ccccc3nc2n1C | -0.1 | 11
O=C(NC(=S)NCc1ccccc1)C1CCCC1 | 18 | 13

Carrying on.
SMILES | MgrA DNA FP | Sa helicase inh
COc1cc(OC)cc(C(=O)NC(C(=O)N2CCC2)C(C)C)c1 (stereo unspecified) | x | -10
Cc1nnsc1C(=O)NNc1ccc(C(C)C)cc1 | x | 15
CCn1c(N2CCN(C(=O)Nc3ccc(Cl)c(C(F)(F)F)c3)CC2)nc2ccccc21 | -1.4 | 2
Cc1cc2nc3n(c2cc1C)CCCN3 | -0.6 | 7
O=C(N/N=C/c1ccccc1Cl)c1ccccc1CO | -2.9 | x
O=C(NC1CCCCC1)/C(=N\O)c1ccccn1 | 0.2 | 14
O=C(NC1CC1)C1CCN(C(=O)c2cnn(-c3ccccc3)c2-n2cccc2)CC1 | x | -15
CC(C)NC(=S)NC(=O)c1ccco1 | x | -8
O/C(=C/Sc1nnc(Cc2ccccc2)o1)c1ccc(F)cc1 | x | 6
CCOC(CSc1nnc2c3ccccc3n(CC)c2n1)OCC | 0.4 | 4
OCCN(Cc1ccccc1)Cc1cccc(C(F)(F)F)c1 | 1.1 | -2
COc1ccccc1N1CCN(C(=O)CSc2nc(C)c(C)c(=O)[nH]2)CC1 | x | -10
CN(Cc1nc2ccccc2c(=O)[nH]1)C(=O)c1cn(-c2ccccc2)nc1-c1cccs1 | x | -8
CCC1CCCCN1C(=O)c1cc(-c2cccs2)on1 (stereo unspecified) | x | 5
O=C(/C=C/c1c(Cl)nc2sccn12)OCc1ccco1 | x | -4
COC(=O)C1C(=O)NC(SC)=C(C#N)C1c1ccccc1C (stereo unspecified) | x | -16
CC(C)Cn1c(SCC(=O)N2CCc3ccccc32)nc2ccccc2c1=O | x | 11
CN1CCN(CCN2C(=O)c3ccccc3C2=O)CC1 | x | 5
CCOC(=O)c1c(C)n(C)c2c1cc(OC(=O)c1ccc(Br)cc1)c1ccccc12 | 2.6 | x
CC(Oc1ccc(F)cc1)c1nnc(SCC(N)=O)n1C (stereo unspecified) | 2.5 | 8
C=C1N(c2nc(C)cc(C)n2)C(=O)OC1(C)C | -2.5 | 4
c1ccc2c(CSc3nc4ccccc4o3)cccc2c1 | 1.1 | 7
Cc1c2cnn(CC(=O)O)c(=O)c2c(C)n1Cc1ccccc1 | x | 16
O=P(c1ccccc1)(c1ccccc1)C1CCCO1 (stereo unspecified) | -0.6 | 1
Cc1cc(C)c(OC(=O)/C=C/c2cccs2)c(C)c1 | 0.0 | x

Rewritten as tab-separated lines: 17 of the compounds above.
Compound	MgrA DNA FP	Sa helicase inh
O=C(NC1CC1)C1CCN(C(=O)c2cnn(-c3ccccc3)c2-n2cccc2)CC1	x	-15
CC(C)NC(=S)NC(=O)c1ccco1	x	-8
O/C(=C/Sc1nnc(Cc2ccccc2)o1)c1ccc(F)cc1	x	6
CCOC(CSc1nnc2c3ccccc3n(CC)c2n1)OCC	0.4	4
OCCN(Cc1ccccc1)Cc1cccc(C(F)(F)F)c1	1.1	-2
COc1ccccc1N1CCN(C(=O)CSc2nc(C)c(C)c(=O)[nH]2)CC1	x	-10
CN(Cc1nc2ccccc2c(=O)[nH]1)C(=O)c1cn(-c2ccccc2)nc1-c1cccs1	x	-8
CCC1CCCCN1C(=O)c1cc(-c2cccs2)on1 (stereo unspecified)	x	5
O=C(/C=C/c1c(Cl)nc2sccn12)OCc1ccco1	x	-4
COC(=O)C1C(=O)NC(SC)=C(C#N)C1c1ccccc1C (stereo unspecified)	x	-16
CC(C)Cn1c(SCC(=O)N2CCc3ccccc32)nc2ccccc2c1=O	x	11
CN1CCN(CCN2C(=O)c3ccccc3C2=O)CC1	x	5
CCOC(=O)c1c(C)n(C)c2c1cc(OC(=O)c1ccc(Br)cc1)c1ccccc12	2.6	x
CC(Oc1ccc(F)cc1)c1nnc(SCC(N)=O)n1C (stereo unspecified)	2.5	8
C=C1N(c2nc(C)cc(C)n2)C(=O)OC1(C)C	-2.5	4
c1ccc2c(CSc3nc4ccccc4o3)cccc2c1	1.1	7
Cc1c2cnn(CC(=O)O)c(=O)c2c(C)n1Cc1ccccc1	x	16

(next part)
SMILES | MgrA DNA FP | Sa helicase inh
CC/C(C)=N/NC(=O)c1cccc(S(=O)(=O)N(CC)CC)c1 | x | 6
CC1CCCCN1C(=O)c1ccc2c(=O)n3c(nc2c1)CCCCC3 (stereo unspecified) | x | 13
NCCSCc1ccccc1 | x | 9
COC(=O)c1scc(S(=O)(=O)c2ccccc2)c1N | -0.5 | x
Cn1c(=NC(=O)CSCC(=O)N2CCCC2)sc2ccccc21 | x | 10
c1ccc(-c2cnc(CSc3ncn[nH]3)o2)cc1 | x | 7
O=C(C1CC1)N1CCC(C(O)(c2ccccc2)c2ccccc2)CC1 | x | -12
O=C1Nc2ccccc2C12Nc1ccccc1CO2 (stereo unspecified) | -1.9 | 2
Cc1nn(-c2ccccc2)c2sc(C(=O)Nc3cccnc3)cc12 | x | 9
O=C(Nc1ccccc1)N(CCc1ccncc1)C1CCCCC1 | x | -5
COC(=O)c1sccc1-c1ccc(/C=N/OC(=O)c2cccs2)o1 | x | 5
COC(=O)c1sccc1NCc1ccccc1 | 0.5 | x
O=C(CSc1nnc(Cc2ccccc2)n1Cc1ccco1)NC1CCCC1 | 3.0 | 5
CC1CCN(S(=O)(=O)c2ccc(C(=O)NCc3ccco3)cc2)CC1 | -3.3 | 2
CCSc1nnc(CSc2nc(C)cc(C)n2)n1-c1ccccc1 | x | 16
CCCCCNc1nc2ccccc2nc1NS(=O)(=O)c1cccs1 | x | 7
COc1ccc(N(CC(=O)N2CCN(c3ccc(Cl)cc3)CC2)S(=O)(=O)c2c(C)noc2C)cc1 | x | -2
COc1cc(-c2nc3ccccc3c(=O)n2NC(=O)/C=C/c2cccc(Cl)c2)cc(OC)c1OC | 2.2 | x
CC(C)N(Cc1ccccc1)C(=O)C1=CCN(S(=O)(=O)c2ccccc2)CC1 | x | 2
O=C(OCc1ccc(Cl)c(Cl)c1)c1ccccn1 | -1.8 | 9
Cc1ccc(N(CC(=O)NCc2cccs2)S(=O)(=O)c2cccs2)cc1 | 0.8 | 14
FC(F)(F)c1ccc(C2NCCc3sccc32)cc1 (stereo unspecified) | -2.5 | x
O=C(COc1ccc(S(=O)(=O)NC2CCCC2)cc1)N1CCCCC1 | -2.5 | 8
COC(=O)C(N)Cc1c[nH]c2ccccc12 (stereo unspecified) | -2.4&-0.5 | -18
CCCn1c(NCc2cccc(OC)c2OC)nc2ccccc21 | x | 0

(cont.)
SMILES | MgrA DNA FP | Sa helicase inh
CCn1ncc(Cc2cnn(CC)c2C)c1C | -2.7 | 16
Cc1cc(Br)ccc1Nc1ncnc(-n2cccc2)n1 | -1.6 | x
O=C(CCS(=O)(=O)c1cccs1)Nc1ccc(C(=O)N2CC=C(c3ccccc3)CC2)cc1 | x | 10
CSC1CCCCC1(O)CSc1nc2c(cc1C#N)CCCC2 (stereo unspecified) | 0.4 | 0
Cc1cccc(Oc2ncc(F)c(Oc3cccc(C)c3)n2)c1 | -4.0 | -10
O=C1CCC(=O)N1c1nccs1 | 2.2 | 11
O=C(O)c1nccnc1C(=O)N1CCCCCC1 | -4.3 | x
Nc1ccccc1C(=O)NCc1ccccn1 | 0.7 | x
COc1ccc(NC(=O)CCc2nnc3n(Cc4ccccc4)c(=O)c4ccccc4n23)cc1 | -1.3 | 7
Cc1ccc(-c2nnc(NC(=O)CCS(=O)(=O)c3ccc(F)cc3)o2)c(C)c1 | x | 6
CCCNC(=O)C1CN(S(=O)(=O)c2ccc(C)cc2)c2ccccc2O1 (stereo unspecified) | x | 5
CC1CCCC(NC(=O)c2ccc3c(c2)NC(=O)CS3)C1C (stereo unspecified) | 5.5 | 19
COc1ccc2[nH]c(C(=O)O)cc2c1 | x | 27
COc1ccc(C2Nc3ccccc3C(=O)N2c2ccc(Cl)cc2)cc1CSc1ccccn1 (stereo unspecified) | 0.3 | x
CC(C)C(NC(=O)c1ccc(C(C)(C)C)cc1)C(=O)N1CCC1 (stereo unspecified) | x | 11
Cc1cc2ccccc2n1CCNC(=O)C12CC3CC(CC(C3)C1)C2 | 4.2 | 14
CCn1c(CSc2nc3ccccc3s2)nnc1SCC(=O)c1ccc2c(c1)OCCO2 | x | 5
CC(=O)Nc1ccccc1-c1nc2ccc(C(=O)N3CCN(c4cccc(C)c4)C(C)C3)cc2[nH]c1=O (stereo unspecified) | 1.9 | 18
CCN(C1CCS(=O)(=O)C1)S(=O)(=O)c1ccccc1 (stereo unspecified) | x | 2
Cc1ccc(S(=O)(=O)N(CCC#N)Cc2ccccc2)cc1 | 0.1 | 5
O=C(Nc1ccc(Cl)cc1)c1cnccc1C(F)(F)F | 0.2 | x
CCSCCOC(=O)C1=C(C)NC2=C(C(=O)CC(c3ccccc3)C2)C1c1ccc2c(c1)OCO2 (stereo unspecified) | -3.5 | x
CCOc1ccc(CCNC(=O)COc2cccc(-n3cnnn3)c2)cc1OCC | x | -2
Cc1cc(C)c2nc(NC(=O)CCOc3ccccc3)sc2c1 | x | -22
CCOC(=O)c1ccc(N=C2SC(C(=O)NCCc3ccccc3)CC(=O)N2C)cc1 (stereo unspecified) | 1.0 | x

Later entries
SMILES | MgrA DNA FP | Sa helicase inh
NC(=S)CCN1C(=O)c2ccccc2C1=O | -0.2 | 3
CCn1cc(SCC(=O)N2N=C(c3cccs3)CC2c2ccc(F)cc2)c2ccccc21 (stereo unspecified) | x | 7
O=C(NCCC1=CCCCC1)c1cc2cc(Cl)cc(Cl)c2oc1=O | x | 1
Cc1cc(C)cc(Oc2coc3cc(OCC(=O)NCc4ccccc4)ccc3c2=O)c1 | -0.2 | -16
CC1=NN(C(=S)c2ccccc2)C(C)(O)C1 (stereo unspecified) | 1.2 | -1
Cc1c(O)ccc2c1OC(C)(C)CC2=O | 1.3 | x
FC(F)(F)c1cccc(-n2cncn2)n1 | x | 5
c1ccc(CSc2nnc(CCCCc3nnc(SCc4ccccc4)o3)o2)cc1 | 0.7 | x
Cc1ccc(N2C(=O)Nc3ccccc3C2(O)C(=O)NC2CCCC(C)C2C)cc1C (stereo unspecified) | 1.2 | 6
CS(=O)(=O)Nc1ccc2c3c(cccc13)CC2 | -1.4 | -4
CC(O)c1ccc(NC(=O)c2nn3c(c2Br)NC(c2cccs2)CC3C(F)(F)F)cc1 (stereo unspecified) | 1.1 | x
CCCCN1Cc2c(n(CC(=O)c3ccccc3)c3cc(-c4ccccc4)nn3c2=O)C1=O | x | -18
CCC(=O)Nc1ccc(C(=O)CSc2nnc(-c3ccc(O)cc3)n2CC2CCCO2)cc1 (stereo unspecified) | 0.6 | -3
Cc1ccc(S(=O)(=O)NC(=O)N2c3ccccc3CCc3ccccc32)cc1 | 0.0 | 12
CCC(=O)Nc1ccc(C(=O)N2CCCCC2C)cc1 (stereo unspecified) | 0.3 | -4
O=C(O/N=C1\Cc2ccccc2C1=O)c1cccs1 | x | 14
Cc1ccccc1N1CCN(S(=O)(=O)c2cccs2)CC1 | 2.2 | 25
CCOc1ccc(OCC(=O)O)cc1 | 0.7 | -13
CC[N+]1=C(Nc2c(C)cccc2C)SCC1 | -2.5 | x
N#C[C@@H]1C[C@@](C#N)(C(=O)c2ccccc2)[C@H]2C=Cc3ccccc3N12 | -1.7 | -2
CC(=NCc1ccc(Cl)c(Cl)c1)c1ccccc1O | 0.3 | x
Cc1c(Cl)cn2c(=O)cc(CN3CCN(C(=O)c4ccco4)CC3)nc2c1Cl | x | 11
O=C(CN(C(=O)c1ccc(Cl)nc1)c1ccc2c(c1)OCCO2)NCc1ccco1 | -2.5 | -1
CCc1ccc(N2CC(c3nc4ccccc4n3CC)CC2=O)cc1 (stereo unspecified) | x | -23
Cc1csc(NC(=O)C2CC2)n1 | -0.3 | -16
